RN4220 kill: growth inhibition of S. aureus RN4220, primary screen, OD600. 16 h. inhibition, % (no concentration beside the values). 0.33% of 330,000 active. AID 1259311, 2017;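 active means z-score of -3 or lower and OD600 up to 0.18 on both plates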;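 further: plate controls were untreated cells for no effect and reference antibiotic for full effect; stock transfer was 100 nL into about 80 µL; one replicate is shown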
Mtb hypoxia inh: PubChem AID 1159583; M. tuberculosis hypoxia-regulated fluorescent reporter, fluorescence; 0.1% of 300,000 active; fluorescence inhibition, % (no concentration beside the values);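 active means 35 to 45% if threefold the growth effect, above 45% if 1.5-fold the growth effect; inactive means the rest, general growth blockers included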;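 further: wells of about 50 µL received 100 nL stock; 0% = vehicle wells and 100% = reference inhibitor wells; whole bacteria with a GFP reporter of the hypoxia response; strong numbers were not always called active; many hits fall short of the cut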
PrP 5UTR inh: inhibition of PrP 5' UTR reporter expression; cell-based PrP 5' UTR mRNA reporter, plate reader; AID 488862, 2010; inhibition, % (test concentration not listed); 0.35% of 340,000 active;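 active means every replicate at 50% or more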;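 further: 0 = median of the neutral control wells; tested in H4 reporter cells; numbers are from one replicate; inactives centre near -14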
Bead autofluor: flagged as autofluorescent in microsphere protease counterscreen; compound autofluorescence counterscreen, microsphere flow cytometry; stronger effect = higher value; fluorescence intensity (no concentration beside the values); 3.1% of 360,000 active; AID 624483;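 active means at least 3 SD above the mean of all compounds, about 16000 in these data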;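 further: 100 nL of 1 mM stock went into each well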
BJeLR lethal: MLPCN primary cell-based screen for lethality selective to Ras in HRASV12 cells; BJeLR (HRASV12) viability, CellTiter-Glo ATP luminescence, 48 h; reference of the scale not given here; inhibition, % (concentration not given with the values); 0.17% of 300,000 active; AID 1554, 2009;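 active means replicate mean above 50%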;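 further: 50 nL library stock added to about 25 µL; numbers are from one replicate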
ugtP null kill: growth inhibition of ugtP-null S. aureus, primary screen, RN4220 ugtP deletion, OD600. 16 h; some inactives read as strong as hits. growth inhibition, % (no concentration beside the values). 0.54% of 330,000 active;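 active means z-score under -3 and OD600 up to 0.15 on both plates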;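 further: plate controls were untreated wells for no effect and antibiotic for full effect; wells of about 80 µL received 100 nL stock; the first replicate is given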
Mtb hypoxia inh growth: also measured in Mtb hypoxia inh; calls as there; growth inhibition, %; measured here: M. tuberculosis growth (absorbance);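 0% = vehicle and 100% = reference antibiotic; read after six days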
An asterisk follows results filed as active; / = no result given.

compound	BJeLR lethal	Mtb hypoxia inh	PrP 5UTR inh	Mtb hypoxia inh growth	ugtP null kill	RN4220 kill	Bead autofluor
O=S(=O)(Nc1cccnc1Cl)c1ccc2c(c1)OCCO2	2.4	-4.7	-10.8	3.2	-11.3	-3.1	16615*
O=C(COC(=O)c1ccccc1O)NC(c1ccccc1)c1ccccc1	/	8.3	-22.4	6.1	18.2	7.8	3484
Cc1nn(CC(=O)Nc2ccc(Cl)cc2Cl)c(=O)c2ccccc12	1.5	13.2	-0.6	2.3	2.6	4.5	2861
CCOc1ncccc1C(=O)OCC(=O)c1ccc(OC)c(OC)c1	1.4	10.6	2.3	-1.0	3.3	-0.8	3208
CCc1noc(C)c1C(=O)Nc1nc(-c2ccc(F)cc2)c(C)s1	0.1	7.5	-3.9	-3.1	7.3	4.7	6173
O=C(NCC(=O)N1CCCCCC1)c1ccc(OC(F)F)cc1	-6.9	15.9	-21.2	1.5	13.8	2.3	4388
COC(=O)C1=C(C)NC(C)=C(C(=O)OC)C1c1ccco1	-1.6	-15.5	-13.9	1.6	0.3	-0.8	6004
COCc1c(C(=O)NN=C(C)c2cccs2)nnn1-c1nonc1N	/	5.1	/	1.5	3.3	-0.4	/
CCOCCNC(=O)c1ccc2c3c(cccc13)CC2	-6.9	/	-1.1	/	0.5	1.0	4636
Cc1cc(NCC(C)C)n2ncnc2n1	-1.1	11.1	-16.6	11.5	6.7	4.3	8017
COC(=O)C1(C#N)C(c2ccccc2)C1(C(=O)OC)C(=O)OC (configuration not stated)	-14.5	17.1	-6.7	-21.5	-0.6	-19.3	2665
c1ccc2c(c1)oc1c(Nc3ccc4c(c3)OCCO4)ncnc12	-6.8	13.2	-54.9	2.9	-6.9	7.7	19956*
COc1ccc2nc(-c3ccccc3)cc(C(=O)OCC(=O)N3CC(C)OC(C)C3)c2c1 (configuration not stated)	/	2.1	-1.5	-2.7	0.3	-0.1	2926
COc1cc(C=NNC(=O)c2cncc(Br)c2)cc([N+](=O)[O-])c1O	/	16.3	/	6.2	2.3	16.0	/
COc1cccc(-n2c(SCC(=O)NC3CCS(=O)(=O)C3)nc3ccccc3c2=O)c1 (configuration not stated)	/	-5.8	-7.6	5.3	0.2	0.4	4256
Cc1nn(-c2ccccc2)c(C)c1/C=C/C(=O)OCC(=O)Nc1ccc(S(N)(=O)=O)cc1	/	5.3	-9.2	-1.8	2.6	1.9	6142
CC(C)(C)N1C(=O)[C@H]2[C@@H](c3ccc(Br)cc3)N3C(=O)N(c4cccc(Cl)c4)C(=O)[C@@]3(Cc3ccccc3)[C@H]2C1=O	7.5	/	0.3	/	/	/	2760
CCN(CC)C(=O)CSc1nnc(-c2ccc(S(=O)(=O)N3CCCC3)cc2)o1	6.0	-0.8	4.3	10.0	-11.9	-2.7	22144*
Cc1nnc(NC(=O)CSc2nnc(-c3ccc(S(=O)(=O)N4CCCC4)cc3)n2C)s1	-0.3	6.0	0.2	-0.2	5.0	4.6	8181
Cc1c(C)c2ccc(OCC(=O)N3C[C@H]4C[C@@H](C3)c3cccc(=O)n3C4)cc2oc1=O	-2.8	/	-0.8	/	3.7	-2.1	4056

Six entries from above, arranged by formula weight, ascending:
compound	BJeLR lethal	Mtb hypoxia inh	PrP 5UTR inh	Mtb hypoxia inh growth	ugtP null kill	RN4220 kill	Bead autofluor
c1ccc2c(c1)oc1c(Nc3ccc4c(c3)OCCO4)ncnc12	-6.8	13.2	-54.9	2.9	-6.9	7.7	19956*
CCc1noc(C)c1C(=O)Nc1nc(-c2ccc(F)cc2)c(C)s1	0.1	7.5	-3.9	-3.1	7.3	4.7	6173
O=C(COC(=O)c1ccccc1O)NC(c1ccccc1)c1ccccc1	/	8.3	-22.4	6.1	18.2	7.8	3484
COCc1c(C(=O)NN=C(C)c2cccs2)nnn1-c1nonc1N	/	5.1	/	1.5	3.3	-0.4	/
COc1cc(C=NNC(=O)c2cncc(Br)c2)cc([N+](=O)[O-])c1O	/	16.3	/	6.2	2.3	16.0	/
CCN(CC)C(=O)CSc1nnc(-c2ccc(S(=O)(=O)N3CCCC3)cc2)o1	6.0	-0.8	4.3	10.0	-11.9	-2.7	22144*

Pulled by compound from the entries so far, 2 records:
compound	BJeLR lethal	Mtb hypoxia inh	PrP 5UTR inh	Mtb hypoxia inh growth	ugtP null kill	RN4220 kill	Bead autofluor
COC(=O)C1=C(C)NC(C)=C(C(=O)OC)C1c1ccco1	-1.6	-15.5	-13.9	1.6	0.3	-0.8	6004
COc1ccc2nc(-c3ccccc3)cc(C(=O)OCC(=O)N3CC(C)OC(C)C3)c2c1 (configuration not stated)	/	2.1	-1.5	-2.7	0.3	-0.1	2926

(list continues)
compound	BJeLR lethal	Mtb hypoxia inh	PrP 5UTR inh	Mtb hypoxia inh growth	ugtP null kill	RN4220 kill	Bead autofluor
CC(C)(C=O)C1=CC(=O)c2ccccc2C1=O	/	4.6	-23.6	10.2	6.6	34.1	2093
CCC1Oc2nc(SC)nnc2-c2ccccc2N1C(=O)c1ccccc1 (configuration not stated)	2.0	-3.5	-21.3	7.5	-5.4	-15.0	2993
COc1ccc(Cn2cnc3c(NS(C)(=O)=O)c(C)c(C)cc32)cc1	-3.1	2.1	-5.4	-2.4	2.1	3.6	8856
COc1ccc(CCNC(=S)NCc2ccc(Cl)c(Cl)c2)cc1OC	-2.4	-5.0	-16.9	-2.5	-9.1	1.8	2630
O=C(c1ccco1)N1CCN(C(=O)C2CCCc3c2[nH]c2ccc(Cl)cc32)CC1 (configuration not stated)	8.2	4.9	-21.1	3.1	-34.0	-8.1	2826
COc1ccc(Oc2ncnc3sccc23)cc1	5.5	-13.5	-26.2	9.9	0.8	-0.6	3379
CCC(Oc1ccccc1)C(=O)Nc1ccsc1C(=O)OC (configuration not stated)	-4.3	10.2	2.2	17.4	23.8	-1.4	2147
O=C(N/C(=C\c1ccc(O)cc1)C(=O)N1CCCCC1)c1ccccc1	-5.3	18.5	-16.9	8.5	9.7	4.6	3945
Cc1oc2ccc(OCc3ccc(Cl)cc3)cc2c1C(=O)O	2.2	-1.9	-54.3	1.2	-4.3	9.4	4725
O=C(COC(=O)c1ccc(Cl)c(Cl)c1)Nc1cccnc1Cl	-2.0	11.1	0.7	3.2	1.2	2.5	2282
Cc1nc2cc(C(=O)OCC(=O)NC(C)C(C)C)ccc2n1-c1ccccc1 (configuration not stated)	6.0	13.5	-49.9	8.3	13.2	2.7	10481
CC#CCCCC(=O)Nc1cccc(C(=O)O)c1	7.9	6.4	-36.2	2.3	4.9	2.7	19921*
COc1ccccc1CC(NC(C)=O)C(=O)N1CCN(C(=O)Nc2ccccc2Cl)CC1 (configuration not stated)	2.5	0.5	/	-0.5	7.0	1.9	11535
CC(C)Oc1cccc(-c2cc(C(=O)NN3CCOCC3)c3ccccc3n2)c1	11.5	6.5	-12.7	6.3	0.2	2.6	5636
Cc1ccc(Nc2nc(N)nc(CSC(=S)N3CCOCC3)n2)cc1	-5.9	12.0	-69.6	11.8	-5.5	3.6	7825
COC(=O)C1(C(=O)OC)NOC2C(=O)N(c3ccccc3)C(=O)C21 (configuration not stated)	6.2	3.2	-0.6	8.2	-5.5	5.1	22517*

High-throughput results as filed in PubChem BioAssay.
